Source: PubChem (National Center for Advancing Translational Sciences (NCATS))
VACV mCherry inh: inhibitors of vaccinia virus infection (mCherry reporter signal); Vaccinia virus mCherry reporter infection, fluorescence; about a quarter of the inactives have no number; Potency, µM (top dose mostly 36.5 µM), without a hit: at the highest dose activity change, negative = inhibition, hits mostly inhibitors; hit rate 0.63% among 310,000; AID 720579; active = well fitted inhibition curve with a large enough effect; inconclusive = small, poorly fitted or top-dose-only effect; inactive = no such curve, though single readings can be large or run the other way; tested in A549 cells; also: nearly all actives have a fitted effect of over 35% in size; inactives centre near -10
Vaccinia Venus: vaccinia inhibition (Venus reporter). Vaccinia virus Venus reporter expression, fluorescence. Potency, µM (series often up to 36.5 µM), for inactives: at the highest dose activity change, negative = inhibition, most hits filed as inhibitors. hit rate 0.46% among 330,000. AID 720580; active means well fitted inhibition curve with a large enough effect; inconclusive means small, poorly fitted or top-dose-only effect; inactive means no such curve, though single readings can be large or run the other way; tested in A549 cells; also: nearly all actives have a fitted effect of over 30% in size; inactives centre near -10
* hit, by the source's call; i = inactive; ? = inconclusive; nt = no result given; & = joins results of further samples; [ ] = dose if it differs, or a comment. % is scaled to controls: 0 for no effect and ±100 for the full control effect; potency is read from the fitted curve at half-maximal effect.

SMILES	VACV mCherry inh	Vaccinia Venus
CC(C)CN(C(=O)CC(C)c1ccccc1)c1c(N)n(Cc2ccccc2)c(=O)[nH]c1=O (centres undefined)	-1%	-15%
Cc1ccc2c(c1)N(CC(=O)NCC1CCCO1)C(=O)C(C(C)C)O2 (centres undefined)	-1%	-4%
COc1ccc(Cl)cc1-c1cc(C(=O)NCc2cccc(Cl)c2)[nH]n1	-19%	-17%
COc1ccc(/C=N/NC(=O)c2cccc(NC(=O)c3ccccc3)c2)c(C(=O)O)c1OC	i	-6%
S=c1[nH]c(-c2ccccc2)cn1/N=C/c1ccncc1	-22%	-12%
CC(=O)c1ccc(NC(=O)CSc2nc(-c3ccccc3C)nc3c2c(=O)n(C)c(=O)n3C)cc1	-8%	-1%
CCCn1c(=O)c(C(=O)NCc2ccc(OC)c(OC)c2)c(O)c2ccccc21	nt	2%
Cc1cnc(N2C(=O)c3ccc([N+](=O)[O-])cc3C2=O)s1	0%	-10%
O=C(Cc1ccc(NS(=O)(=O)c2ccc(F)cc2)cc1)NCc1cccnc1	-9%	2%
O=C(NCc1ccccc1)c1cccc(COc2ccccc2Cl)c1	-29%	-20%
O=C(Nc1ccc(Cl)c(S(=O)(=O)N2CCOCC2)c1)c1ccc(OCC2CCCO2)cc1 (centres undefined)	i	-11%
CCn1c(NC(=O)C(C)C)c2ccccc2nc1=O	-6%	-17%
Cc1cccc(C)c1NC(=O)c1ccc2c(c1)CCN2S(C)(=O)=O	i	-15%
COc1ccccc1/C=N\Nc1cc(C)nc(-n2nc(C)cc2C)n1	5.6µM*	?
N#Cc1c[nH]n2c(NC3CCCC3)c(-c3ccc(Cl)cc3)nc12	-19%	-14%
Cc1ccc(NC(=O)c2cc3c([nH]c2=O)CC(C)(C)CC3=O)c(C)c1	-2%	1%
Cc1cc(OCCOCCNC(C)C)cc(C)c1Cl	nt	-27%
O=S(=O)(NCc1ccccc1)c1ccc(F)cc1Br	-2%	-3%
Cc1ccc(C2C3=C(NCCN=C3c3ccccc3)C(=O)N2c2ccccc2)cc1 (centres undefined)	-8%	-23%
COc1ccc(C(C)C)cc1S(=O)(=O)N1CCC(C(=O)NCc2cccnc2)CC1	-9%	-6%

A few values from the list:
O=C(Cc1ccc(NS(=O)(=O)c2ccc(F)cc2)cc1)NCc1cccnc1 in Vaccinia Venus shows 2%
Cc1ccc(C2C3=C(NCCN=C3c3ccccc3)C(=O)N2c2ccccc2)cc1 (centres undefined) in VACV mCherry inh shows -8%

Next part.
SMILES	VACV mCherry inh	Vaccinia Venus
Cc1cc(C(=O)OCC(=O)Nc2c(Cl)cccc2C(F)(F)F)c(C)o1	-14%	-7%
Cc1ccc(C(=O)N2CCN(c3ccc(C(F)(F)F)cn3)CC2)o1	-3%	-16%
C=Cc1ccc(Cn2c(=O)n(CC3CCC(C(=O)NC(C)C)CC3)c(=O)c3sccc32)cc1 (centres undefined)	-24%	-23%
COC(=O)c1ccc(CSc2nc3ccccc3c(=O)n2Cc2ccco2)o1	-13%	-12%
CC(C)C[C@@H](CN1CCC[C@H]1CN1C(=O)C(=O)NC[C@@H]1Cc1ccc(O)cc1)N1C[C@H](Cc2ccc(O)cc2)N(CC2CCCCC2)C(=O)C1=O	-1%	-7%
O=C(Cn1c(SCc2cccc(F)c2)nc2cccnc21)Nc1ccc(F)c(Cl)c1	-19%	-23%
CN(C)Cc1c(O)ccc2c3c(c(=O)oc12)CCCCC3	-19%	-14%
O=C(Nc1ccccc1Cl)c1ccn[nH]1	nt	-17%
CC1CCN(Cc2nnc(-c3cccc(Br)c3)o2)CC1	-10%	-12%
CC(C)CC(NC(=O)CN)C(=O)NC(Cc1ccccc1)C(=O)O (centres undefined)	-2%	0%
CCCn1c(CN2CCCCC2C)nc2c1c(=O)n(C)c(=O)n2C (centres undefined)	i	-6%
COc1ccc(CCN=C(N)NS(=O)(=O)c2ccc(C)cc2)cc1OC	i	-9%
CCN(CC(=O)Nc1ccc(OC)cc1)C(=O)c1ccc2c(=O)n3c(nc2c1)CCC3	-6%	-2%
Cn1cnnc1SCC(=O)Nc1ccc(F)cc1	-13%	-4%
N/C(Cc1ccc([N+](=O)[O-])cc1)=N\OC(=O)c1ccccc1Br	-24%	-14%
COc1cc2c(cc1OC)C(C(=O)N1CCN(c3ccccn3)CC1)C(c1cccs1)N(C)C2=O (centres undefined)	i	-20%
CC(=O)Nc1ccc(C=NNC(=O)CCCC(=O)NN=Cc2ccc(NC(C)=O)cc2)cc1	-15%	-7%
COc1ccccc1-c1nnc(SCC(=O)NCc2c(C)c(Cl)cc(C(C)C)c2O)o1	?	-26%
O=C(CCC1CCCCC1)NCc1cccnc1	i	-10%
Cc1ccccc1OCC(=O)Nc1nnc(S(=O)(=O)N2CCCCCC2)s1	-17%	-10%
CCC(=O)Nc1ccc(CC)cc1-c1nc2ccccc2n(CC(=O)Nc2cccc(Cl)c2)c1=O	?	-25%
CCOC(=O)c1nn(-c2ccc(Cl)cc2)c2nnc(Cc3ccc(C)cc3)c(=O)n12	i	-6%
CNC(=S)N=Nc1c(O)[nH]c2ccccc12	i	-18%
CCOC(=O)CCCCC(=O)c1[nH]c(=O)[nH]c1CSc1nc(C)cc(C)n1	nt	-20%
COc1ccc(-c2nnc(SCC(=O)N(C)C3CCS(=O)(=O)C3)n2CC(C)C)cc1 (centres undefined)	-21%	-8%
CC1(C)CC(=O)c2cc3c(N)c(C(=O)NCc4ccccc4)sc3nc2C1	-15%	-8%
O=C(O)c1ccsc1Cc1cccs1	19%	-15%
Cc1occc1C(=O)N/N=C/c1ccc(Br)s1	-16%	-6%
COc1ccc(NC(=O)CSc2nnc(-c3cccs3)n2-c2ccccc2)cc1	-28%	-25%
CC(C)(C)OC(=O)N1CCN(C(=O)c2[nH]cnc2C(=O)N[C@@H](Cc2ccccc2)C(=O)OCc2ccccc2)CC1	i	0%
COc1cc(NC(=O)Cn2cnc3sc(C)c(S(=O)(=O)N4CCN(C)CC4)c3c2=O)cc(OC)c1OC	-13%	-12%
CN(C)/C=C1\N=C(c2cccs2)OC1=O	nt	-20%
COc1ccc2c(c1)[nH]c1c(=O)n(N)cnc12	-16%	-20%
Cc1cc2ncn(C(=O)c3ccc(F)cc3)c2cc1C	-15%	-7%
COc1ccc(CN(C(=O)c2cccs2)c2ccccc2)cc1	-18%	-18%
COc1cc(-c2cc(NC=O)c3ncc(-c4ccccc4)n3c2)cc(OC)c1OC	?	-22%
CCN1CCN(c2ccc(S(=O)(=O)N3CCCCC3)cc2NC(=O)Cc2ccccc2F)CC1	-7%	-24%
CCOC(=O)c1ccc(S(=O)(=O)Nc2ccc(N3CCOCC3)cc2)cc1	?	1%
O=C(C1=C[C@@H](c2coc3ccccc3c2=O)C[C@@H](OCCCCO)O1)N1CCOCC1	i	-4%
CCOc1ccccc1NC(=O)NC1(C(=O)N2CCOCC2)CCCCC1	5%	4%
CCC(CC)C(=O)N1CCN(Cc2ccc3c(c2)OCO3)CC1	-17%	-4%
CCCCc1nc(NCCNC(=O)c2ccccc2)c(C#N)c2c1CSC(C)(C)C2	nt	?
COc1ccccc1Cn1[nH]nnc1=S	-12%[7.34 µM]	-8%[7.34 µM]
CC(NC(=O)c1cccs1)C(S)c1ccccc1 (centres undefined)	-14%	-13%
COc1ccc(OCCN2CCN(S(=O)(=O)c3ccccc3C(F)(F)F)CC2)cc1	?	-26%
O=C(COc1cccc(F)c1)N[C@@H](Cc1ccccc1)c1nc2ccccc2[nH]1	7%	-15%
COc1ccccc1NC(=O)COC(=O)c1ccccn1	9%	-6%
CCc1ccc(-c2nc3cc(NC(=O)c4cc5ccccc5cc4OC)ccc3o2)cc1	-22%	-10%
COc1cc2c(cc1OC)CN(C(=O)c1sccc1C)CC2	-10%	-16%
COC(=O)c1cc(NC(=O)c2nn(C)c3c2COc2ccccc2-3)cc(C(=O)OC)c1	-27%	-20%
CCOc1ccc(C(=O)NC(=S)Nc2ccc(N3CCC(C)CC3)cc2)cc1[N+](=O)[O-]	9%	16%
O=C(CS(=O)(=O)c1c[nH]c2ccccc12)Nc1ccc(F)cc1	-2%	-7%
CC(C)c1nc2ccc(NC(=O)C34CC5CC(CC(C5)C3)C4)cc2[nH]1	i	-20%
CC(=O)Nc1ccc(C(=O)NNC(=O)c2cccs2)cc1	i	-7%
O=C(N/N=C/c1cccc([N+](=O)[O-])c1)C1CC(=O)N(c2ccc(Br)cc2)C1 (centres undefined)	-2%	-6%
C(=N\N1CCN(C2c3ccccc3-c3ccccc32)CC1)/c1cccs1	nt	-7%
COc1cc(OC)c2c(-c3ccccc3)cc(C3CCCCC3)nc2c1	-14%	-18%
Cc1nn(Cc2ccccc2)c(C)c1N	-11%	-2%
CCc1cnc2c(c1SCc1ccccc1C)c(=O)n(C)c(=O)n2C	-3%	-11%
Cc1ccc(NC(=O)NN(C)c2c(Cl)c(Cl)nn2C)cc1	i	-20%

Not a retest: an excerpt of the list.
SMILES	VACV mCherry inh	Vaccinia Venus
CCC(CC)C(=O)N1CCN(Cc2ccc3c(c2)OCO3)CC1	-17%	-4%
CCCCc1nc(NCCNC(=O)c2ccccc2)c(C#N)c2c1CSC(C)(C)C2	nt	?
COc1ccccc1Cn1[nH]nnc1=S	-12%[7.34 µM]	-8%[7.34 µM]
CC(NC(=O)c1cccs1)C(S)c1ccccc1 (centres undefined)	-14%	-13%
COc1ccc(OCCN2CCN(S(=O)(=O)c3ccccc3C(F)(F)F)CC2)cc1	?	-26%
O=C(COc1cccc(F)c1)N[C@@H](Cc1ccccc1)c1nc2ccccc2[nH]1	7%	-15%
COc1ccccc1NC(=O)COC(=O)c1ccccn1	9%	-6%
CCc1ccc(-c2nc3cc(NC(=O)c4cc5ccccc5cc4OC)ccc3o2)cc1	-22%	-10%
COc1cc2c(cc1OC)CN(C(=O)c1sccc1C)CC2	-10%	-16%
COC(=O)c1cc(NC(=O)c2nn(C)c3c2COc2ccccc2-3)cc(C(=O)OC)c1	-27%	-20%
CCOc1ccc(C(=O)NC(=S)Nc2ccc(N3CCC(C)CC3)cc2)cc1[N+](=O)[O-]	9%	16%
O=C(CS(=O)(=O)c1c[nH]c2ccccc12)Nc1ccc(F)cc1	-2%	-7%
CC(C)c1nc2ccc(NC(=O)C34CC5CC(CC(C5)C3)C4)cc2[nH]1	i	-20%
CC(=O)Nc1ccc(C(=O)NNC(=O)c2cccs2)cc1	i	-7%

New compounds follow.
SMILES	VACV mCherry inh	Vaccinia Venus
CC(=O)NCc1ccc(S(=O)(=O)N2CCN(S(=O)(=O)c3ccc4ccccc4c3)CC2)cc1	i	-16%
CCc1ccccc1N1C(=O)N(Cc2ccc(C#N)cc2)c2ccccc2S1(=O)=O	0%	-2%
CC1(C(=O)NS(=O)(=O)c2ccc(Cl)s2)CCN1C(=O)Cc1ccc(Cl)cc1Cl (centres undefined)	25%	-5%
NS(=O)(=O)c1ccc(CNC(=O)Cc2ccc(S(=O)(=O)N3CCOCC3)s2)cc1	-18%	5%
COC(=O)C=CC(=NNc1ccccc1)c1ccccc1	?	-5%
CC1CCN(C(=O)c2ccc(Br)c(S(=O)(=O)N3CCOCC3)c2)CC1	-8%	-2%
O=C1CC(c2ccc(F)cc2)CC(O)=C1C=NCCN1CCN(C(=O)Nc2ccccc2)CC1 (centres undefined)	-15%	-5%
Cc1nn(Cc2c(Cl)cccc2Cl)c(C)c1C(=O)NCc1ccc(C)n1C	nt	-10%
O=C(C(=O)N1CCOc2ccc(CN3CCN(Cc4ccccn4)CC3)cc2C1)c1ccccc1	1%	3%
COc1cc(C(C)=O)ccc1Oc1cc(NN2CCCCC2)c([N+](=O)[O-])cc1[N+](=O)[O-]	?	-26%
CC(C)C(=O)n1nc(-c2cccnc2)nc1NCc1ccc(F)cc1	-4%	-12%
COCCNC(=O)c1c(C)cc(C)cc1C	i	-3%
NC(=O)NN=C1c2cc(S(=O)(=O)N3CCOCC3)ccc2-c2ccc(S(=O)(=O)N3CCOCC3)cc21	-1%	-18%
CCCOC(=O)CCCCCCCCC(O)CN1CCCCC1 (centres undefined)	-10%	-11%
CC(C)(C)c1ccc(OC(=O)CN2C(=O)C3C4CCC(C4)C3C2=O)cc1 (centres undefined)	-1%	-21%
Cc1ccc(N(C)C(=O)c2cnn(-c3ccccc3)c2C)c(C)c1	i	-7%
O=c1cc2oc3cc(O)c(O)cc3c(-c3ccccc3O)c-2cc1O	320%[activator]	i
CCCCOc1ccc(CSc2nncn2N)cc1	nt	22%
S=c1[nH]nc(-c2ccncc2)n1CC1CCCO1 (centres undefined)	nt	-12%
CCOc1nnc(C)c2c(C)n(-c3ccc(Cl)cc3)nc12	-26%	-12%
CCNC(=O)N1CCNC(=O)C1CC(=O)Nc1ccc(C(=O)OCC)cc1 (centres undefined)	nt	-5%
Cc1ccc(N2CC(C(=O)N/N=C/c3sccc3C)CC2=O)cc1 (centres undefined)	?	-29%
Cc1cc(C)c2c3c(cn2n1)c(=O)n(C)c(=O)n3C	-14%	-2%
N#Cc1ccccc1S(=O)(=O)N1CCN(c2nc(-c3ccccc3)nc3ccccc23)CC1	?	-16%&-20%
CC(=O)Nc1ccc(S(=O)(=O)Nc2ccc(-c3ccc4nnc(C)n4n3)cc2)cc1	-6%	1%
Cc1ccc2c(c1)C(=O)CC1(CCCCCC1)O2	?	-11%
CC(C)(C)OC(=O)N[C@H](C(=O)OC(C)(C)C)c1ccc2c(c1)OCO2	i	-11%
Cc1ccc2c(c1)nc(NCCO)n2C	i	-13%
CCn1cnc2c1c(=O)n(CC(=O)Nc1cc(C)on1)c(=O)n2Cc1ccccc1	i	-16%
CN1C(=O)CS(=O)c2ccc(C(=O)NCCC3=CCCCC3)cc21 (centres undefined)	-2%	-12%
F[B-](F)(F)c1cncc2ccccc12	0%	-3%
CC(O)(c1cccc(F)c1)c1nc(-c2cc(F)cc(F)c2)cs1 (centres undefined)	i	-8%
